Screens as filed in PubChem BioAssay.
Mtb hypoxia rep: inhibitors of hypoxia-regulated fluorescent reporter in Mycobacterium tuberculosis | fluorescence inhibition, % (test concentration not listed) | 300,000 tested, 0.1% active | M. tuberculosis hypoxia-regulated fluorescent reporter, fluorescence;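 active means 35 to 45% if threefold the growth effect, above 45% if 1.5-fold the growth effect; inactive means the rest, general growth blockers included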;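 further: wells of about 50 µL received 100 nL stock; 0% = vehicle wells and 100% = reference inhibitor wells; whole bacteria with a GFP reporter of the hypoxia response; strong numbers were not always called active; many hits fall short of the cut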
ugtP null kill: growth inhibition of S. aureus ugtP deletion strain | S. aureus RN4220 ugtP deletion, OD600 growth, 16 h; some inactives read as strong as hits | AID 1259309 | 330,000 tested, 0.54% active | growth inhibition, % (test concentration not listed);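 active means z-score under -3 and OD600 up to 0.15 on both plates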;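 further: plate controls were untreated wells for no effect and antibiotic for full effect; wells of about 80 µL received 100 nL stock; the first replicate is given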
Autofluor counter: flagged as autofluorescent in microsphere protease counterscreen; fluorescence intensity (no concentration beside the values); 360,000 tested, 3.1% active; AID 624483; compound autofluorescence counterscreen, microsphere flow cytometry; active compounds read high;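 active means at least 3 SD above the mean of all compounds, about 16000 in these data; inconclusive means too few beads counted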;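 further: 100 nL of 1 mM stock went into each well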
RN4220 kill: kills Staphylococcus aureus RN4220 | S. aureus RN4220 growth, OD600, 16 h | 330,000 tested, 0.33% active | inhibition, % (test concentration not listed) | AID 1259311;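 active means z-score of -3 or lower and OD600 up to 0.18 on both plates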;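 further: plate controls were untreated cells for no effect and reference antibiotic for full effect; stock transfer was 100 nL into about 80 µL; one replicate is shown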
BJeLR lethal: BJeLR cell viability loss | BJeLR (HRASV12) viability, CellTiter-Glo ATP luminescence, 48 h; reference of the scale not given here | inhibition, % (concentration not given with the values) | 300,000 tested, 0.17% active | AID 1554;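 active means replicate mean above 50%; inconclusive means above 50% but judged a plate artefact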;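 further: 50 nL library stock added to about 25 µL; numbers are from one replicate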
PrP 5UTR inh: inhibition of PrP 5' UTR reporter expression. cell-based PrP 5' UTR mRNA reporter, plate reader. inhibition, % (no concentration beside the values). 340,000 tested, 0.35% active. AID 488862;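 active means every replicate at 50% or more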;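 further: 0 = median of the neutral control wells; tested in H4 reporter cells; numbers are from one replicate; inactives centre near -14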
Mtb hypoxia rep growth: also measured in Mtb hypoxia rep; calls as there; growth inhibition, %; measured here: M. tuberculosis growth (absorbance);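 0% = vehicle and 100% = reference antibiotic; read after six days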
* marks the source's active call; other numbers are inactive results; u = inconclusive; x = not tested or not shown; & = joins results of further samples.

SMILES	Mtb hypoxia rep	Mtb hypoxia rep growth	ugtP null kill	Autofluor counter	RN4220 kill	BJeLR lethal	PrP 5UTR inh
CC(C)OC(=O)NC(C)(C)COC(=O)Nc1cccc(Cl)c1	1	-2	-25	u	-6.9	-7	-25
O=C(COC(=O)c1ccc(S(=O)(=O)N2CCCC2)cc1)NCCc1ccc(F)cc1	5	-1	5	3436	5.9	x	-35
CC(C)n1c(N)c(C#N)c2ccc([N+](=O)[O-])cc2c1=O	5	2	5	4244	4.8	-9	-18
O=C(CN1C(=O)/C(=C\c2ccccc2Cl)Oc2ccccc21)NCc1cccnc1	9	11	4	2587	0.3	-12	-13
CCOc1ccc(C(=O)N2CCCC(c3nc(-c4cccs4)no3)C2)cc1 (stereo unspecified)	17	8	20	4435	24	-3	-2
Cc1cc(C)c(NC(=O)COC(=O)C2CCN(c3ccc(C(F)(F)F)cn3)CC2)c(Cl)c1	5	5	-1	5767	5.6	-1	-31
CCOc1ccc(C(=O)Nc2cc(C)ccn2)cc1	6	2	9	2364	4.6	24	40
COc1ccc(Cl)cc1NC(=O)N1CCN(CCc2ccccc2)CC1	8	2	-7	11272	9.1	5	-20
O=C(O)CCc1ccc(-c2ccc(F)cc2)n1CCC(=O)O	16	0	-1	7899	2.2	-4	0
O=C(Nc1cc(C(=O)N2CCCC2)ccc1N1CCCC1)c1ccccc1F	7	6	2	9877	5.7	-13	-28
Oc1ccc(N=Cc2ccc(-c3cccs3)s2)cc1	8	3	-10	16163*	4.3	5	-13
O=C(CCC(=O)Nc1cccc2ccccc12)N/N=C/c1ccco1	x	x	x	8238	x	-8	-12
O=C(CCNS(=O)(=O)c1ccc(Br)cc1)NC1CCC(O)CC1 (stereo unspecified)	2	1	6	u	3.3	x	-10
CC1CCCC(C)N1C(=O)COC(=O)Cc1ccc(Cl)cc1 (stereo unspecified)	4	-3	0	3296	2.0	-1	-6
COc1ccccc1N(CC(O)CN1CCC(C)CC1)S(=O)(=O)c1ccccc1 (stereo unspecified)	6	10	10	3769	3.3	2	-22
Cc1ccccc1CSc1ccc2nnc(-c3ccccn3)n2n1	13	0	7	3547	1.0	1	-33
COc1ccc(CCNc2ccc(C(CC(N)=O)NC(=O)c3cc(OC)ccc3OC)cc2[N+](=O)[O-])cc1 (stereo unspecified)	7	12	-11	3337	2.5	-1	-30
Cc1ccc(-c2cn(-c3ccc(SC(F)F)cc3)c3[n+]2CCC3)cc1	-3	9	5	2143	1.3	11	-15
CCCC[C@H]1COCCS(=O)(=O)N1Cc1ccc(C)cc1	x	x	x	4082	x	4	13
CC1=NN(c2ccccc2)C(=O)/C1=C/c1ccc[nH]1	-3	7	-17	2426	-0.8	1	-40
CCc1nnc(NS(=O)(=O)c2ccc(NC(=O)c3ccccc3C)cc2)s1	10	9	12	3692	3.3	-5	-17
O=C(CC1Sc2ccccc2NC1=O)NNc1ccc(Cl)cc1Cl (stereo unspecified)	3	3	-3	2934	6.7	x	-14
COC(=O)c1ccccc1NC(=O)C1CCCC1	-13	-4	3	9438	2.0	1	-1
O=C(NN=Cc1cc([N+](=O)[O-])ccc1O)/C(=C\c1cccs1)NC(=O)c1ccccc1	-5	-1	18	x	64	x	x
COc1ccc(S(=O)(=O)Nc2cccnc2)c(C)c1C	x	x	x	4067	x	6	-10
COC(=O)C1=C(C)N(CCCC(=O)O)C(=O)NC1c1ccc(C(F)(F)F)cc1 (stereo unspecified)	4	1	5	3889	7.1	-8	-2
O=C1CC(c2ccccc2)CC(=O)N1c1ccccc1	0	8	7	5951	2.4	-4	-13
CCNC(=O)O/N=C(\C)c1sc(-c2ccccc2)nc1C	x	x	x	4898	x	2	-43
COc1cc(C(=O)NCCOc2ccc(Cl)cc2)ccc1OCc1c(C)noc1C	-1	-1	8	2836	3.6	x	-26
Fc1ccc(C(c2nnnn2C2CCCC2)N2CCN(Cc3ccccc3)CC2)cc1 (stereo unspecified)	x	x	11	2351	-3.9	-2	3
CC(=O)c1ccccc1OC(=O)c1ccc([N+](=O)[O-])o1	-12	-5	5	u	5.1	5	-16
Nc1nc(SCCN2C(=O)c3ccccc3C2=O)n[nH]1	0	-2	7	18492*	3.2	-6	-22
COc1ccc(C=NNc2cc(C)nc3c(C)cccc23)cc1	11	17	-7	x	3.9	x	x
COc1ccc(CNc2nc(C)cc(C)c2C#N)cc1	15	8	4	x	7.2	-4	6
COc1ccc(OCC(O)CN(C)C(=O)/C=C/c2cccc([N+](=O)[O-])c2)cc1 (stereo unspecified)	x	x	x	2584	x	12	-7
Cc1cc(=O)n(C)c2ccccc12	0	0	9	4492	4.6	13	-31
Cc1ccc(NS(=O)(=O)c2ccc3[nH]c(=O)[nH]c3c2)cc1	-8	2	4	5698	-0.3	-7	4
O=c1c[n+]([O-])c2ccccc2n1OCc1ccccn1	21	13	2	3554	0.8	-9	-11
COc1cc(C(C)=O)ccc1OCC(O)CN1CCN(c2ccccn2)CC1 (stereo unspecified)	x	x	x	2908	x	-8	-12
Cc1ccc(C=Nn2cnc3sc4c(c3c2=O)CCCC4)o1	1	-6	-12	x	1.1	x	x
Cc1ccc(NC(=O)Cc2nc(-c3c[nH]c(C(=O)N4CCCC4)c3)cs2)c(C)c1	10	8	-1	8276	4.9	x	-25
CC(C)CN(C(=O)COC(=O)c1c(Cl)ccc(Cl)c1Cl)C1CCS(=O)(=O)C1 (stereo unspecified)	9	8	16	3296	2.9	-5	-13
CCOc1cc(C=NNC(=O)CSc2nncn2C)ccc1OCC(N)=O	-11	-8	0	x	0.3	x	x
COC(=O)c1sc2ncccc2c1OCc1ccc(Cl)cc1Cl	0	-11	0	23512*	19	10	-15
O=C1c2ccccc2-c2cccc(C(=O)N3CCN(C(=O)c4ccccc4)CC3)c21	3	0	8	4335	2.6	8	-3
CC1=NN(C(=O)Cc2ccc([N+](=O)[O-])cc2)C(O)(c2ccccc2)C1 (stereo unspecified)	-3	-1	3	9132	1.7	3	9
CCOc1ccc(-n2c(=O)c3c4c(sc3n(CC(=O)NCC3CCCO3)c2=O)CCCC4)cc1 (stereo unspecified)	5	4	4	4573	2.9	9	-21
O=C(CCCCCC(=O)N(CCO)CCO)N(CCO)CCO	x	x	6	2441	0.0	-5	-13
COc1ccccc1CNC(=O)COC(=O)CSc1ccc(F)cc1	3	-3	0	4849	2.9	-3	-3
CC1(C)NCCN2C(=O)CSC21 (stereo unspecified)	x	x	1	3735	0.2	-1	-42

Carrying on.
SMILES	Mtb hypoxia rep	Mtb hypoxia rep growth	ugtP null kill	Autofluor counter	RN4220 kill	BJeLR lethal	PrP 5UTR inh
Cc1ccc(NC(=O)C2=CCN(S(=O)(=O)c3ccc(F)cc3)CC2)cc1	x	x	-8	6012	1.4	-7	1
O=[N+]([O-])c1cccc(/C=C/c2nc[nH]c2[N+](=O)[O-])c1	0	11	5	3403	7.8	-11	-5
CSc1ccc(CN(C)CC(=O)Nc2ccc(NC(C)=O)cc2)cc1	9	12	2	4562	-2.2	1	-6
O=C(CN1CCN(C(=O)c2ccco2)CC1)N1CCc2[nH]c3ccccc3c2C1	12	1	5	x	3.6	1	x
CN1C(=O)C(=Cc2ccc(OCCN(C)c3ccccn3)cc2)C(=O)N(C)C1=O	7	0	6	4441	-0.1	-3	-8
CSCCC(NC(=O)c1ccccc1Cl)C(=O)N1CCN(C(C)=O)CC1 (stereo unspecified)	3	8	0	5403	-0.1	x	-5
OCC1(CCc2ccccc2)CCN(Cc2ccccc2Cl)CC1	2	2	-69	3963	11	-1	-18
CCCCC1(c2ccc(F)cc2)NC(=O)N(CC(=O)N2CCN(C(=O)c3ccco3)CC2)C1=O (stereo unspecified)	0	9	-3	7094	0.5	-4	-12
O=[N+]([O-])c1ccc2n[nH]nc2c1	x	x	6	4156	0.8	5	-30
O=[N+]([O-])c1ccc(Nc2nc(NN=Cc3ccc4c(c3)OCO4)nc(N3CCCCC3)n2)cc1	4	19	-9	x	-4.7	x	x
Cc1ccc(C(=O)Nc2nc(-c3ccccn3)cs2)cc1S(=O)(=O)N1CCOCC1	4	13	-9	3895	11	x	39
O=c1c2ccccc2nc(/C=C/c2ccc(O)c(O)c2)n1-c1ccccc1	-3	-10	-20	x	11	11	-16
O=S1(=O)N=C(c2ccccc2)c2ccccc21	19	4	8	5928	6.2	0	-21
O=C(CCC(=O)c1cccs1)NCc1ccccc1Cl	18	13	7	3899	1.5	x	-36
COc1ccc(NC(=O)c2ccc3c(c2)C(=O)N(Cc2cccnc2)C3=O)cc1	3	-5	-5	2961	-13	-1	-14
COC(=O)c1ccc(OC(=O)c2ccc(OC)cc2)c(OC)c1	-6	5	5	4264	8.5	-2	32
Cc1ccc(NC(=O)CSc2n[nH]c(-c3ccco3)n2)cc1	-4	3	4	3037	10	1	-14
O=[N+]([O-])c1ccc(N2CCN(CCO)CC2)cc1Sc1ccccn1	16	2	-1	2619	0.6	0	-3
C=CCOC(=O)C1=C(C)NC(C)=C(C(=O)OCC=C)C1c1cn(-c2ccccc2)nc1-c1ccco1	9	5	0	2618	0.9	5	-2
Cc1csc2nc(O)c(C(=O)NCCCc3ccccc3)c(=O)n12	2	0	18	4603	7.4	6	-11
CC(C(=O)N1CCCc2ccccc21)N1C(=O)c2ccccc2C1=O (stereo unspecified)	x	x	1	2667	3.3	3	-13
CCOC(=O)c1cc(C(=O)Nc2ccccc2F)nn1C	-2	9	3	10968	4.0	9	-91
Cc1c(Cl)ccc2sc(NC(=O)CN3C(=O)c4ccccc4C3=O)nc12	3	9	-9	5505	-12	-14	-5
O=C(COC(=O)c1cc(=O)[nH]c2ccc(Br)cc12)c1ccccc1	17	10	-7	2161	5.4	-14	-19
O=C(NCCCN1CCCC1=O)c1cccs1	0	2	1	11626	0.3	3	-4
O=C1NC(Cc2c[nH]c3ccccc23)COC(=O)C(Cc2ccc(F)cc2)CC=CCC1CC(=O)N(CCO)Cc1ccccc1 (stereo unspecified)	-1&-3&-3	0&-2&-2	15&-3&-5	x	-3.8&-7.0&-5.0	x	x
Cc1cc(OCC(=O)OCC(=O)c2c(N)n(C)c(=O)n(C)c2=O)ccc1Cl	12	1	-1	x	3.6	x	-6
O=C(COC(=O)c1cccc(-n2cnnn2)c1)Nc1c(Cl)cccc1C(F)(F)F	3	-14	-6	5680	-5.3	6	-16
COc1cc(NC(=O)C2=CC(c3cccs3)=NS(=O)(=O)N2C)cc(OC)c1OC	x	x	3	4072	-4.0	0	-2
Nc1nn(-c2cccc(F)n2)cc1-c1ccc(Cl)cc1	2	0	-11	4051	-1.4	2	-42
Cc1cc(NC(=O)CCC(=O)N(Cc2ccco2)C2(C(=O)NC3CCCC3)CCCCC2)no1	4	10	9	3625	-0.2	-5	-22
CC1CCCC(NC(=O)COC(=O)[C@@H](NC(=O)c2ccc(F)cc2)C(C)C)C1C (stereo partly specified)	11	7	1	3776	4.3	x	-24
O=C(Nc1cc([N+](=O)[O-])ccc1F)c1ccc2ccccc2c1	12	5	1	2990	4.7	-1	-10
Cc1ccnc(NC(=O)CCC(=O)N(CC(=O)NCc2ccc(F)cc2)c2ccc(F)cc2)c1	3	-2	18	3555	0.2	-6	0
CCOC(=O)Cc1csc(NC(NC(=O)OCC)(C(=O)OCC)C(F)(F)F)n1 (stereo unspecified)	1	4	-2	6443	1.9	6	-5
O=C(Cc1ccccc1)Nc1c(Cl)ccc2nsnc12	-1	3	-12	5630	-1.9	-5	x

In the list so far, four have two or more sulfur atoms:
SMILES	Mtb hypoxia rep	Mtb hypoxia rep growth	ugtP null kill	Autofluor counter	RN4220 kill	BJeLR lethal	PrP 5UTR inh
Oc1ccc(N=Cc2ccc(-c3cccs3)s2)cc1	8	3	-10	16163*	4.3	5	-13
CCc1nnc(NS(=O)(=O)c2ccc(NC(=O)c3ccccc3C)cc2)s1	10	9	12	3692	3.3	-5	-17
Cc1ccc(C(=O)Nc2nc(-c3ccccn3)cs2)cc1S(=O)(=O)N1CCOCC1	4	13	-9	3895	11	x	39
COc1cc(NC(=O)C2=CC(c3cccs3)=NS(=O)(=O)N2C)cc(OC)c1OC	x	x	3	4072	-4.0	0	-2
